Compound activity (PubChem BioAssay)
WNV NS2B-NS3 inh: inhibitors of WNV NS2B-NS3 protease, primary screen, biochemical, fluorogenic substrate; Genome polyprotein (West Nile virus), P06935; fluorogenic substrate Ex360/Em465; stronger effect = lower value; z-score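 (tested at a level between 10 and 100 µM)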; 0.18% of 65,000 active;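 active means z-score at -3 or under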;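 further: score is relative to mean and spread of the compound wells of a plate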
Target sequence (P06935 1371-1501 limits assumed): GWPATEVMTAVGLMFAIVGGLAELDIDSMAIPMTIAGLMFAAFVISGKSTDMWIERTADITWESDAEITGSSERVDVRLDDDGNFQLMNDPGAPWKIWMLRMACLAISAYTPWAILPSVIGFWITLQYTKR
Target sequence (P06935 1502-1679 limits assumed): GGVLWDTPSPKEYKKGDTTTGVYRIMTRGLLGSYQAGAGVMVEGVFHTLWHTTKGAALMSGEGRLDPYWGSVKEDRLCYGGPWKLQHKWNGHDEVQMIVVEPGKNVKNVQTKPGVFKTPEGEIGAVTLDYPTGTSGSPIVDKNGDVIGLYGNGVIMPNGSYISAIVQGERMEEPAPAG
MT1-MMP reporter: inhibitors of MT1-MMP promoter transcription, cell-based, luciferase reporter, luminescence (AID 618) | calls from a first round at 10 µM; hits with a dose series show EC50 in µM | MT1-MMP promoter luciferase reporter cells, luminescence | 0.62% of 87,000 active;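 active means over half of the reporter light lost at 10 µM or EC50 under 50 µM; inactive means the rest and hits that failed the dose series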;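 further: actives suppress MT1-MMP promoter-driven transcription so potencies describe inhibitors; HT1080 fibrosarcoma cells; overnight exposure; toxic or luciferase-blocking compounds were not removed from the actives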
Hsc70: Hsc70 inhibitors, probe displacement, primary screen, biochemical, fluorescence polarization (AID 568). Heat shock cognate 71 kDa protein (Homo sapiens). Hsc70 fluorescence polarization, probe displacement; higher % means a stronger effect; strong numbers were not always called active. one-dose displacement, % at 20 µM; IC50 in µM for titrated hits. 83,000 tested, under 10 active;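 active means displacement above 50% without optical interference and an IC50 on retest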;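 further: ATPase domain with a fluorescein-tagged ATP probe; 0% = vehicle and 100% = excess ADP; read after one hour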
* = called active by the depositor; i = inactive; · = not tested or not shown.

entry | SMILES | MT1-MMP reporter | Hsc70 | WNV NS2B-NS3 inh
1 | CC(C)CC(=O)Nc1ccccc1-c1nnn(CC(=O)N2CCOCC2)n1 | i | 1.4% | 0.11
2 | NC(=O)CN1CCN(C(=O)Nc2ccccc2)CC1 | i | -0.9% | 0.93
3 | NC(=O)c1c(NC(NC(=O)c2ccco2)(C(F)(F)F)C(F)(F)F)sc2c1CCCC2 | i | -3.6% | 0.69
4 | Cc1noc(C)c1COC(=O)c1ccccc1Sc1ccccc1C#N | i | -0.3% | 1.5
5 | Cc1ccccc1-n1c(=O)cc(N2CCc3ccccc3C2)[nH]c1=O | i | 3.6% | -0.07
6 | CC(=O)c1ccc2c(c1)N(C)c1ccccc1S2 | i | 2.6% | ·
7 | COc1ccc(NC(=O)NC2CC3CCCC(C2)N3Cc2ccccc2)cc1 (stereo unspecified) | i | 4.1% | ·
8 | CCN=C1SC(CC(=O)Nc2ccc(C)cc2)C(=O)N1CC (stereo unspecified) | i | -1.9% | -0.09
9 | CN(C(=O)c1cccnc1)c1nnc(-c2cnccn2)s1 | i | -1.6% | -0.12
10 | O=C(Nc1ccc(S(=O)(=O)N2CCCc3ccccc32)cc1)C1CCCO1 (stereo unspecified) | i | 9.5% | -0.12
11 | Cc1ccc(S(=O)(=O)c2nc(N3CCOCC3)sc2Cl)cc1 | i | 1.9% | -0.63
12 | COc1ccccc1N(C(=O)Cn1nnc2ccccc21)C(C(=O)NCc1ccco1)c1ccc(C)o1 (stereo unspecified) | i | -9.3% | -0.83
13 | Cc1cc(C(=O)NC2CCCc3ccccc32)no1 (stereo unspecified) | i | 2.0% | 0.11
14 | CC(C)OC(=O)c1nnn(-c2nonc2N)c1CN1CCCCCC1 | i | 0.8% | 0.47
15 | Nc1ccc(-c2ccc(N)cc2C(F)(F)F)c(C(F)(F)F)c1 | i | 0.1% | -0.67
16 | COc1cccc2cc(C(=O)N3CCN(C(=O)c4ccccc4)CC3)c(=O)oc12 | i | -3.5% | ·
17 | O=C(CN1C2=NCCCN2c2ccccc21)c1cccs1 | i | -4.2% | -0.77
18 | O=C(COc1ccc2ccccc2c1)Nc1nc2ccccc2[nH]1 | i | 2.5% | ·
19 | COc1cccc(OCCOc2cccc(/C=N/n3cnnc3)c2)c1 | i | -1.9% | 2.1
20 | Cc1cccc(C(=O)N2CCCCCC2)c1 | i | -4.2% | ·
21 | Cc1nc2ccccc2nc1N1CCCCC1 | i | 0.9% | -0.42
22 | COC(=O)c1cc(Br)c(=O)n(CCc2ccccc2)c1 | i | 0.9% | 0.43
23 | COC(=O)c1ccccc1NC(=O)c1cc2ncc(Br)cn2n1 | i | -4.4% | 0.36
24 | CCC(C)N(C(=O)c1csnn1)C(C(=O)NC(C)(C)C)c1ccccc1 (stereo unspecified) | i | 5.5% | ·
25 | CCNC(=O)CN(c1ccccc1)S(=O)(=O)c1ccc(Cl)cc1 | i | -3.1% | ·
26 | Cc1cccn2c(=O)c3cc(C(=O)NC(C)c4ccccc4)c(=N)n(CCCn4ccnc4)c3nc12 (stereo unspecified) | i | -6.4% | 1.8
27 | CCCCN1C(=O)C2ON(c3ccccc3C)C(c3ccco3)C2C1=O (stereo unspecified) | i | -1.1% | 1.4
28 | COc1ccccc1-c1nnc(NC(=O)c2ccccc2F)o1 | i | 2.8% | 0.49
29 | CCOC(=O)C(C)c1nc2ccccc2[nH]c1=O (stereo unspecified) | i | 0.0% | -0.06
30 | O=C(NCCc1ccccc1)c1cc(-c2ccco2)on1 | i | -6.6% | -0.3
31 | Cn1cccc1-c1nc2ccccc2n1Cc1ccccc1 | i | 2.0% | -0.28
32 | CC(=O)Oc1ccc(N2C(=O)CC(N3CCOCC3)C2=O)cc1 (stereo unspecified) | i | 0.5% | -0.24
33 | CC(=O)Nc1nc2ccc(Br)cc2s1 | i | 3.5% | 0.9
34 | Cc1nnsc1NC(=O)OCC(C)(C)C | i | -1.4% | ·
35 | COCCNC(=O)C(C)N(c1ccc(OC)cc1)S(C)(=O)=O (stereo unspecified) | i | 3.1% | ·
36 | Cc1ccc(C)c(-c2nc3cc(N)ccc3o2)c1 | i | -5.3% | 0.23
37 | CCOCCCNC(=O)c1cn(C)c2ccc(S(=O)(=O)N(C)C3CCCCC3)cc2c1=O | i | 6.6% | 0.21
38 | O=c1[nH]c(C(F)(F)F)nc2c1nnn2Cc1ccccc1F | i | -7.2% | 1.5
39 | CCC1(C)N(O)C(C)(C)C(c2ccc(F)cc2)=[N+]1[O-] (stereo unspecified) | i | 1.7% | ·
40 | O=S(=O)(Cc1cc(Sc2ccccc2)nc(-c2ccccc2)n1)c1ccccc1 | i | 7.4% | ·
41 | COC(=O)c1cccc(NC(=O)CSc2nnc(C)n2Cc2ccccc2)c1 | i | -5.1% | 0.14
42 | CC(C)=CCC(C)(C)C1OCCN1C(=O)Nc1ccccc1 (stereo unspecified) | i | -5.2% | 0.78
43 | Brc1ccc2[nH]c3nc(SCCN4CCOCC4)nnc3c2c1 | i | -7.2% | 0.29
44 | CCOc1cc(-c2cc(N)n[nH]2)cc(OCC)c1OCC | i | -1.9% | -0.38
45 | Cc1ccc(-c2noc(CN(C(=O)CCCCCN3C(=O)c4ccccc4C3=O)C(C)C)n2)cc1 | i | -4.8% | 0.52
46 | CCCc1cc(=O)oc2cc(C)c(CN3CCCC3)c(O)c12 | i | -3.3% | -1.5
47 | CC1(C)CC(=O)C2=C(C1)NC(=O)CC2c1ccc(N(CCC#N)CCC#N)cc1 (stereo unspecified) | i | -0.7% | -0.58
48 | CC(NS(=O)(=O)c1ccccc1)C(=O)Nc1ccc(S(N)(=O)=O)cc1 (stereo unspecified) | i | 2.0% | -0.23
49 | Nc1cc(Br)c(N)c(Br)c1 | i | -3.2% | 0.5
50 | CC(C)CC(=O)N1CCN(S(C)(=O)=O)CC1 | i | -4.3% | -1

Some entries already given with just MT1-MMP reporter and WNV NS2B-NS3 inh.
item	Structure	MT1-MMP reporter	WNV NS2B-NS3 inh
35	COCCNC(=O)C(C)N(c1ccc(OC)cc1)S(C)(=O)=O (stereo unspecified)	i	·
19	COc1cccc(OCCOc2cccc(/C=N/n3cnnc3)c2)c1	i	2.1
5	Cc1ccccc1-n1c(=O)cc(N2CCc3ccccc3C2)[nH]c1=O	i	-0.07

Complete entries from above. Screens in order: MT1-MMP reporter, Hsc70, WNV NS2B-NS3 inh
O=c1[nH]c(C(F)(F)F)nc2c1nnn2Cc1ccccc1F is listed with i, -7.2%, 1.5
COc1ccccc1-c1nnc(NC(=O)c2ccccc2F)o1 is listed with i, 2.8%, 0.49
O=S(=O)(Cc1cc(Sc2ccccc2)nc(-c2ccccc2)n1)c1ccccc1 is listed with i, 7.4%, ·
CC(NS(=O)(=O)c1ccccc1)C(=O)Nc1ccc(S(N)(=O)=O)cc1 (stereo unspecified) is listed with i, 2.0%, -0.23
Cc1cccn2c(=O)c3cc(C(=O)NC(C)c4ccccc4)c(=N)n(CCCn4ccnc4)c3nc12 (stereo unspecified) is listed with i, -6.4%, 1.8

Next section.
entry | SMILES | MT1-MMP reporter | Hsc70 | WNV NS2B-NS3 inh
51 | O=C1OCCC1Sc1nc2ccccc2s1 (stereo unspecified) | i | 3.0% | -0.74
52 | O=Cc1cn(CC(=O)N2CCCc3ccccc32)c2ccccc12 | i | 1.7% | ·
53 | COc1ccc(-n2c(Cc3cccn3C)nnc2SCC(=O)NC2CCCCC2)cc1 | i | -0.9% | -0.66
54 | CCN(C(=O)CN1CCN(c2ccc(OC)cc2)CC1)c1c(N)n(Cc2ccccc2)c(=O)[nH]c1=O | i | -5.4% | 1.1
55 | CNc1ccccc1-c1nc2ccccc2n(C)c1=O | i | -7.2% | 0.57
56 | C#CC(C)(CC)NC(=O)Cn1nnc(-c2ccc(S(C)(=O)=O)cc2)n1 (stereo unspecified) | i | 3.1% | -0.77
57 | COc1c(F)c(F)c(C(=O)Nc2ccc(N3CCN(Cc4ccccc4)CC3)cc2)c(F)c1F | i | -1.8% | ·
58 | N#Cc1ccsc1NC(=O)CSc1ncn[nH]1 | i | 1.7% | 0.74
59 | COc1ccc(NC(=O)CCNS(=O)(=O)c2cccc3nsnc23)cc1OC | i | 2.4% | ·
60 | CC(=O)C(C)Oc1cc(C)cc2oc(=O)c(C)c(C)c12 (stereo unspecified) | i | -4.2% | 0.12
61 | O=C(NCc1cccs1)C1CCN(S(=O)(=O)c2cccs2)CC1 | i | 2.4% | 0.45
62 | COc1ccccc1N1CCN(C(=O)C(F)F)CC1 | i | 6.8% | -0.15
63 | O=C(CC1CCS(=O)(=O)C1)Nc1ccc[nH]c1=O (stereo unspecified) | i | -2.7% | -0.28
64 | O=C(c1noc2c1CCCC2)N1CCOCC1 | i | -5.3% | -0.56
65 | OC1(C2(O)CC(c3ccccc3)ON2)CCCCC1 (stereo unspecified) | i | -3.2% | -0.33
66 | CCC(c1nnnn1Cc1ccco1)N(CCc1ccccc1)Cc1cc2cc(C)ccc2[nH]c1=O (stereo unspecified) | i | -14% | -1.1
67 | O=C(CSc1ccc2nnc(-c3ccccn3)n2n1)NCc1ccco1 | i | -2.7% | 0.18
68 | C=C(C)c1cccc(C(C)(C)NC(=O)N2CCCC(C)C2)c1 (stereo unspecified) | i | 7.0% | ·
69 | Cc1cc(NC(=O)Nc2cc(C)nn2-c2ccccc2)n(-c2ccccc2)n1 | i | 0.9% | -0.65
70 | C=CCc1ccccc1OCC(O)CNC(C)C (stereo unspecified) | i | 4.9% | -0.3
71 | CC(C)(C)c1ccccc1NC(=O)c1cccnc1 | i | 0.9% | -1
72 | Cc1ccccc1OCCSc1nnc(-c2ccncc2)n1C | i | -0.2% | ·
73 | Cc1c(OCc2nn[nH]n2)ccc2c(-c3ccccc3)cc(=O)oc12 | i | -2.0% | -1
74 | CCSc1nnc(N(CCC(=O)O)CCC(=O)O)s1 | i | -3.5% | -0.05
75 | COc1cc(C)nc(Oc2ccc(=O)n(C)n2)n1 | i | 2.0% | 0.65
76 | COc1ccc(C2=CC(c3sccc3C)n3nnnc3N2)cc1 (stereo unspecified) | i | -1.4% | 0.64
77 | CN(CC(=O)Nc1ccncc1)S(=O)(=O)c1ccc(Br)cc1 | i | -4.5% | ·
78 | NC(=O)C1CCN(Cc2nc3ccccc3c(=O)[nH]2)CC1 | i | -0.1% | ·
79 | O=C(Nc1ccccc1N1CCOCC1)c1ccccc1NS(=O)(=O)c1ccc(F)cc1 | i | -4.1% | ·
80 | CC12C(=O)N(c3ccccc3C(=O)O)C(=O)C1C1C=CC2C1 (stereo unspecified) | i | -0.7% | 0.5
81 | CCOC(=O)C(C)Oc1ccccc1C1NC(=O)NC(C)=C1C(=O)Nc1ccc(C)c(C)c1 (stereo unspecified) | i | 1.2% | 0.09
82 | C=CCc1cccc(/C=N/c2ncn[nH]2)c1O | i | -1.1% | 0.48
83 | Cc1cccc(N=c2oc3cc(O)ccc3cc2C(N)=O)c1 | i | -35% | -0.52
84 | Nc1nc(-c2ccco2)nn1C(=O)c1cccnc1 | i | 0.8% | -0.2
85 | O=C(Cn1nnc(-c2ccc(N3CCOCC3)cc2)n1)OC1CCCCC1 | i | -7.6% | 1.7
86 | Cc1cccc(N2CCN(c3cccc(C)c3)C2c2cccnc2)c1 | i | -1.4% | -0.64
87 | NNS(=O)(=O)c1ccc(Cc2ncc(C(F)(F)F)cc2Cl)s1 | i | 3.5% | ·
88 | N#C/C(C(=O)Oc1ccccc1)=C1\C=Cc2ccccc2N1 | i | -3.4% | ·
89 | COc1ccc(S(=O)(=O)NCc2ccc(C(=O)N(C)Cc3ccco3)cc2)cc1 | i | 1.5% | ·
90 | O=C(O)CCC(=O)NC1CCCCC1 | i | -2.7% | ·
91 | O=C(CSc1nc(-c2ccco2)cc(C(F)(F)F)n1)N1CCCc2ccccc21 | i | 1.5% | -0.14
92 | O=C(CCN1C(=O)c2ccccc2C1=O)N1CCN(c2ccccc2)CC1 | i | 3.8% | -1.4
93 | O=C(NCc1cccnc1)C1CC(=O)N(C2CCCCC2)C1 (stereo unspecified) | i | 2.6% | 1.4
94 | CCC(C)NS(=O)(=O)c1ccc(S(=O)(=O)Nc2cc3c(cc2C(C)=O)OCO3)cc1 (stereo unspecified) | i | -1.0% | 0.27
95 | CCOCCCNC(=O)C(NC(=O)C1CCC(=O)N1)c1ccc(C)cc1 (stereo unspecified) | i | 1.0% | -0.12
96 | CCOc1ccc(N(CC(=O)Nc2ccc(OC)cc2)S(C)(=O)=O)cc1 | i | -1.2% | 0.67
97 | N#Cc1c(N)nc2c(c1-c1ccncc1)CCCCC2 | i | -2.8% | 0.41
98 | COc1ccc(N2C(=O)c3ccccc3NC23CCCCC3)cc1 | i | -7.4% | 0.18
99 | CC1Oc2ccccc2N(CC(=O)NCc2cccs2)C1=O (stereo unspecified) | i | -3.4% | -0.81
100 | CCOc1ncccc1C(=O)OCC(=O)c1c(N)n(C)c(=O)n(C)c1=O | i | 2.0% | 1.7

(listing goes on)
entry | SMILES | MT1-MMP reporter | Hsc70 | WNV NS2B-NS3 inh
101 | Cc1cc(C(=O)CSc2nc(N)cc(N)n2)c(C)n1CCc1ccc(F)cc1 | i | -2.9% | 1.5
102 | CCc1cc2c(=O)c(-c3cscn3)coc2cc1O | i | -2.8% | 0.71
103 | Cn1ccnc1SCc1cn2cc(Br)ccc2n1 | 15µM* | -3.7% | -0.16
104 | CC1CCCC(C)N1C(=O)COC(=O)c1ccc2c(c1)OCO2 (stereo unspecified) | i | 0.0% | -0.27
105 | COC(=O)CNC(=O)c1ccccc1F | i | -3.6% | ·
